Mtb bLac sens: beta-lactam sensitization of Mtb H37Rv; M. tuberculosis H37Rv growth with meropenem, percent inhibition; hits of this screen are not shown here; inhibition, % at 25 µM; 330,000 compounds, 0.27% hits;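 active = about 74% or more and at least 40 points above the plate without the antibiotic, then above 30% in a dose series; inconclusive = first-round hits that could not be retested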;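 also: growth measured after seven days incubation then overnight dye step; 0% = bacteria only wells and 100% = bacteria with antibiotic; twin plates without the antibiotic show which effects depend on it; some results filed as inactive read as strong as hits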
Arbovirus anti: blocks arbovirus infection. AID 1251. 200,000 compounds, 0.37% hits. arbovirus infection cell-based antiviral screen. inhibition, % at 10 µM;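 active = inhibition from about 30%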;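 also: bluetongue infection of BSR cells; cell survival read as ATP light after 72 h; 0% = infected wells without compound and 100% = uninfected wells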
Mtb growth: M. tuberculosis H37Rv growth inhibitors, H37Rv strain (AID 1626); M. tuberculosis H37Rv growth inhibition; higher % means a stronger effect; inhibition, % at 10 µM; hits with a dose series show IC50 in µM; 220,000 compounds, 0.95% hits;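 active = confirmed in a dose series; inconclusive = inhibition above 80% but not taken into the dose series; inactive = below 80% or under 30% at every dose of the series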;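 also: bacteria incubated seven days before Alamar blue readout; 0% = bacteria only wells and 100% = bacteria with antibiotic wells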
YopH PTP inh: inhibitors of Yersinia enterocolitica YopH tyrosine phosphatase; fluorescence Ex485/Em525; 140,000 compounds, 0.16% hits; inhibition, %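 (about 10 µM by stock and volumes)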; AID 898;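 active = inhibition of 50% or more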;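 also: controls were vehicle for no effect and minimum signal wells for full effect; inactives centre near -20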
RecA splice inh: inhibitors of M. tuberculosis RecA intein splicing; P9WHJ3; cell-free RecA intein splicing, fluorescence; inhibition, %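 (about 9 µM by stock and volumes)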; 290,000 compounds, 0.75% hits; AID 2221; in the data active = inhibition above about 30%; inconclusive = no clear call, values can overlap the other calls;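 also: 0% = vehicle wells and 100% = reference inhibitor control wells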
Target sequence (P9WHJ3 whole entry, looked up, canonical isoform): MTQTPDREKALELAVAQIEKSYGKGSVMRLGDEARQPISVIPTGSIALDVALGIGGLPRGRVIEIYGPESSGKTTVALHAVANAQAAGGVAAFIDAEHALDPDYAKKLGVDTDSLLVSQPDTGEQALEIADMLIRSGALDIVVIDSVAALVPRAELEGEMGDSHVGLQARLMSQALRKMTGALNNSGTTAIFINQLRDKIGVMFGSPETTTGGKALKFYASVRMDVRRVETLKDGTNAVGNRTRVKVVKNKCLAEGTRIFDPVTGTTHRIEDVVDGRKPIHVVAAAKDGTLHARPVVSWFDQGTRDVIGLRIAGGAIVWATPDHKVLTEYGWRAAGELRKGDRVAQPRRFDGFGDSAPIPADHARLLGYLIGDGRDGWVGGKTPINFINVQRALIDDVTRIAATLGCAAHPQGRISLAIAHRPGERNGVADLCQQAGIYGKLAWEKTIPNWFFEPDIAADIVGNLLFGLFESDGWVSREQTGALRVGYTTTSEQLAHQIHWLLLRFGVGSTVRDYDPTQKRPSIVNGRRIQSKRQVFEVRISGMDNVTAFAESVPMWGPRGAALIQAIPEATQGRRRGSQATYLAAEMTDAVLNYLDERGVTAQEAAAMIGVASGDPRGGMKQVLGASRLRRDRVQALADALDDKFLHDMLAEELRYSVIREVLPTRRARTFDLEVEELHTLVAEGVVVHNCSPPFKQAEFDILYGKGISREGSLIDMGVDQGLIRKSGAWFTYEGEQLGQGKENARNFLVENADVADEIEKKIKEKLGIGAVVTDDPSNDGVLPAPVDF
Arbovirus anti repeat: recorded beside Arbovirus anti, whose call it bears; inhibition, %; measured here: 10K subset replicate screen; many hits read low in the repeat;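 first of two repeat runs on a subset; 0% = infected and 100% = uninfected wells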
* hit, by the source's call; ? = inconclusive; / = no result given.

SMILES	Mtb bLac sens	Arbovirus anti	Mtb growth	YopH PTP inh	RecA splice inh	others
COc1cc(C(=O)OCC(C)=O)c([N+](=O)[O-])cc1OC	-8	17	2%	/	0.0
CC(c1ccccc1)n1c(N2CCNCC2)nc2c1c(=O)[nH]c(=O)n2C (stereo not drawn)	4	/	/	/	-4.6
Cc1ccc(SCCN)cc1C	-4	3	2%	/	-1.1
O=c1nc2n(c3ccc([N+](=O)[O-])cc13)CCCCC2	-6	3	2%	/	-1.7
Fc1ccc(/C=N/NC(=S)Nc2ccc(Cl)cc2Cl)cc1	3	/	-7%	/	-0.2
CC(C)(C)Nc1nc(SCC(=O)Nc2ccccc2)nc(N2CCOCC2)n1	-3	-12	-1%	/	2.2
CCCOc1ccc(Cn2c(O)cc(=O)[nH]c2=O)cc1	-10	-2	-8%	-27	2.3
O=C1CC(c2ccccc2)Cc2nc3nc(C(F)(F)F)nn3cc21 (stereo not drawn)	6	9	-5%	-8	-1.6
CC1OC(Nc2ccc(N=Nc3ccccc3)cc2)C(O)C(O)C1O (stereo not drawn)	85	-2	?	/	4.7
CCCCC(=O)NCc1ccc(F)cc1	-5	13	12%	-11	0.7
CCn1c(COc2ccccc2OC)nnc1SCC(=O)NC1CCCC1	-4	/	/	/	-0.5
O=C(Cc1ccc(F)cc1)NCCS(=O)(=O)N1CCN(c2cccc(Cl)c2)CC1	-10	/	/	/	0.3
CCN(CCO)Cc1cc(=O)oc2cc3c(cc12)CCC3	0	2	-1%	/	-4.5
O=C(CSc1cccc[n+]1[O-])NC1CCCCCCC1	-5	2	-3%	/	0.5
CN(CCCNC(=O)CSc1cc(=O)n(C)c2cc(Cl)ccc12)Cc1ccccc1	-5	-33	4%	/	0.7
CCOc1cc(CNCc2ccccn2)ccc1OCC(=O)NC1CCCCC1	-2	-9	-1%	0	1.9
NC(=O)COC(=O)CSc1ccc2ccccc2c1	-9	2	4%	/	-1.1
CCCCCCCCC(=O)NCCOc1ccc(OC)cc1	12	4	13%	-22	1.1
Cc1ccccc1C1CCCN(Cc2nc(C3CC3)no2)C1 (stereo not drawn)	-3	1	-4%	/	1.3
CCC(=O)c1ccc(OCC(O)CN2CCCCC2)cc1 (stereo not drawn)	-4	4	-2%	4	-0.5
CSc1nnc2ccc(-c3ccc(C)cc3)nn12	2	/	/	/	1.5
O=C(CCl)Oc1ccc2occ(C(=O)c3cccs3)c2c1	-13	1	>100µM*	4	32*
CC(=O)N1CC(C)Oc2ccc(S(=O)(=O)NC(CC(=O)O)c3ccccc3C)cc21 (stereo not drawn)	-5	/	/	/	-1.7
COc1ccc(N2CC(C(=O)N3CCC(c4nc5ccccc5[nH]4)CC3)CC2=O)cc1 (stereo not drawn)	-14	/	/	/	-0.6
Cc1ccc(-n2cc(CNCCN3CCOC3=O)c(-c3cccc(C)c3)n2)cc1	4	-15	-3%	/	1.9

The last five records of the section before open the next one:
SMILES	Mtb bLac sens	Arbovirus anti	Mtb growth	YopH PTP inh	RecA splice inh	others
CSc1nnc2ccc(-c3ccc(C)cc3)nn12	2	/	/	/	1.5
O=C(CCl)Oc1ccc2occ(C(=O)c3cccs3)c2c1	-13	1	>100µM*	4	32*
CC(=O)N1CC(C)Oc2ccc(S(=O)(=O)NC(CC(=O)O)c3ccccc3C)cc21 (stereo not drawn)	-5	/	/	/	-1.7
COc1ccc(N2CC(C(=O)N3CCC(c4nc5ccccc5[nH]4)CC3)CC2=O)cc1 (stereo not drawn)	-14	/	/	/	-0.6
Cc1ccc(-n2cc(CNCCN3CCOC3=O)c(-c3cccc(C)c3)n2)cc1	4	-15	-3%	/	1.9
O=C(CSc1nc(C2CC2)nc2ccccc12)N1CCCCC1	-8	/	/	/	8.0
CCC(CC)N1CCN(C(=O)c2cc(OC)c(OC)c(OC)c2)CC1	-4	/	/	/	0.9
C=CCOC(=O)C1=C(C)NC(SCC(=O)NC(=O)OCC)=C(C#N)C1c1cccnc1 (stereo not drawn)	-12	1	-3%	-20	/
O=C(CCS(=O)(=O)Cc1ccccc1)NCc1ccco1	-4	2	-2%	-7	0.7
O=C(CSc1ccc(F)cc1)Nc1ccccc1Br	3	-8	29%	/	8.7
O=C(CN1CCN(C(=O)c2ccco2)CC1)Nc1ccccc1	-5	/	/	/	-0.9
COc1cccc(NC(=O)C2CC(=O)N=C(N)S2)c1 (stereo not drawn)	-7	6	-4%	2	-3.1
CC(C)CCOCC(=O)Nc1cccc(C(=O)O)c1	7	0	1%	-23	0.0
OCCCNc1nc(-c2ccc(Cl)cc2)nnc1-c1ccc(Br)cc1	-3	-2	26%	-1	9.3
O=C(NCC(=O)N(c1ccc(Cl)cc1)C(C(=O)NC1CCCC1)c1ccncc1)c1ccco1 (stereo not drawn)	7	/	/	/	3.8
Cc1ccc2nc(-c3ccc(NC(=O)COC(=O)c4ccc(Br)o4)cc3)sc2c1	3	-26	5%	-19	/
COc1cccc(NC(=O)C2C3CC4OC(=O)C2C4C3)c1 (stereo not drawn)	-9	7	-3%	21	1.8
N#Cc1cnn2ccc(-c3cc(N4CCOCC4)ccc3[N+](=O)[O-])nc12	-15	6	2%	/	-4.4
CCn1nnc2sc3c(c2c1=O)CCC(C)C3 (stereo not drawn)	2	10	-7%	-33	-3.3
CCOC(=O)N/N=C/c1ccc(OCCSc2ccc(Cl)cc2)c(OCC)c1	21	0	-2%	-23	2.1
Cc1ccc(S(=O)(=O)NC2=NCN(C)CN2)cc1[N+](=O)[O-]	4	/	/	/	-2.1
O=C(CSc1ncn[nH]1)NCc1ccc2c(c1)OCO2	-9	3	5%	/	-2.0
CCc1nn(C(C)C(=O)N2CCN(c3ccccc3)CC2)c(=O)c2cc3occc3n12 (stereo not drawn)	0	/	/	/	4.2
O=C(NCC(O)CO)c1ccc2[nH]c3ccccc3c2c1 (stereo not drawn)	-5	-2	2%	-16	-0.4
COC(=O)c1cc(NC(=O)CC2SCCNC2=O)cc(C(=O)OC)c1 (stereo not drawn)	0	-1	4%	9	/
Cc1ccc(NC(=S)N2CCCC2)cc1Cl	-2	/	/	/	-2.7
Cc1ccc(CS(=O)(=O)Cc2ccc(C(=O)NCc3ccco3)o2)cc1	4	-1	-11%	-14	1.8
CS(=O)(=O)c1sc(C(=O)NC(=S)Nc2ccc(OC(F)(F)F)cc2)c2c1C=CCC2	71	/	5%	/	-0.4
Cc1cc(C(=O)COC(=O)c2n[nH]c3ccccc23)c(C)n1C	-23	-2	-3%	-9	-0.2
COc1cccc(-c2nnc(SCC(=O)N(C(C)C)C(C)C)o2)c1	-12	6	-2%	-23	/

New compounds follow.
SMILES	Mtb bLac sens	Arbovirus anti	Mtb growth	YopH PTP inh	RecA splice inh	others
O=c1c2c3c(sc2nc2sc(C4CC4)nn12)CCCC3	-1	0	-2%	-13	5.4
Cc1oc2c(c1C(=O)Nc1cccc(C(=O)O)c1)CCCC2	10	10	-3%	-29	3.8
CC(C)Oc1ccc(CNC(=O)Cn2c(=O)oc3ccccc32)cc1	4	7	12%	-37	-0.9
Cn1c2ccccc2c(=O)c2c(=O)n(C3CCCCCC3)c(C3CCCCC3)nc21	/	-17	8%	-5	0.6
COc1ccc(NS(=O)(=O)/C=C/c2ccccc2)cc1	2	-2	9%	-25	5.0
Cc1cccc(OCC(=O)Nc2ccc3oc(=O)ccc3c2)c1	8	/	/	/	-2.9
COc1ccccc1Nc1n[nH]c(=S)s1	-4	-3	1%	/	-6.9
Cc1nc2cc(-c3ccc(Cl)cc3)nn2c(C)c1CCC(=O)NC(C)c1ccc2c(c1)OCCO2 (stereo not drawn)	-2	-8	17%	3	1.9
COCCCNC(=O)C1CC(=O)N(C2CCCC2)C1 (stereo not drawn)	3	0	-10%	-28	6.0
COc1ccccc1NC(=O)c1cc(C)nc2ccccc12	7	-7	-2%	/	0.0
CCn1c(CNS(=O)(=O)c2ccc(Cl)cc2)n[nH]c1=S	-3	-4	3%	/	-1.9
Cc1cc2[nH]c(=S)[nH]c2cc1C	2	-3	-1%	-17	-3.0
O=C(COc1ccc(-n2cnnn2)cc1)N1CCN(c2ccc(F)cc2)CC1	1	-1	1%	-38	-0.6
Cc1ccc2c(N)c(C(=O)c3ccccc3)sc2n1	0	/	0%	/	-5.3
CCOC(=O)/C(=C\C=C\N1CCOCC1)C(C)=O	8	2	-3%	/	-2.1
CC(=O)c1ccc(NC(=O)C(C)OC(=O)c2ccc3c(c2)nc(C)n3-c2ccccc2)cc1 (stereo not drawn)	83	-3	8%	17	8.7
COc1ccc(NC(=O)COc2ccc(S(=O)(=O)N3CCOCC3)cc2C)cc1OC	6	/	/	/	1.5
Oc1ccc(/C=N/N(c2ccccc2)c2ccccc2)cc1O	-3	/	/	/	2.3
CCCC(=O)Nc1nc(C(=O)OCC)cs1	2	15	0%	-36	-3.8
Cc1nnc(NC(=O)C2(c3ccccc3)CCOCC2)s1	-3	2	-4%	2	2.7
CCCOC(=O)Nc1cc(OC)c(Cl)cc1OC	5	1	/	0	1.4
CCC(CO)NCCNC(CC)CO (stereo not drawn)	99	14	?	-2	0.2
NC(=O)CSc1nnc(-c2cccc(S(=O)(=O)N3CCOCC3)c2)n1C1CCCCCC1	-2	6	-5%	-31	2.8
CCC(=NCc1ccco1)c1c(O)n(-c2ccccc2C)c(=O)[nH]c1=O	-5	/	-6%	/	0.1
CCc1ccc(NC(=O)c2cc(C)nn2-c2ccccc2)cc1	93	/	/	/	2.6

Next structures follow.
SMILES	Mtb bLac sens	Arbovirus anti	Mtb growth	YopH PTP inh	RecA splice inh	others
O=C(COc1ccccc1Br)N1CCN(C(=O)c2ccco2)CC1	-11	/	/	/	2.5
CCN1CCN(c2ccc(S(=O)(=O)N3CCCCC3)cc2NC(=O)/C=C/c2cc(OC)ccc2OC)CC1	3	/	/	/	-5.7
Cc1ccc(NC(=O)Nc2c(Cl)cccc2Cl)cn1	-12	/	-8%	/	-0.6
O=C(CSc1ccccc1)Nc1cccc(S(=O)(=O)N2CCCC2)c1	-1	3	0%	-8	-2.0
CC(=O)c1ccc(-c2nnc(CCC(=O)N(C)Cc3cccc4cnccc34)o2)s1	4	5	0%	/	-2.0
CC(CCc1ccc(O)cc1)NCCc1ccc(O)c(O)c1 (stereo not drawn)	3	/	-10%	/	-0.1
O=c1[nH]cnc2ccsc12	-13	-3	7%	/	-6.8
O=c1oc(/C=C/c2ccccc2)nc2ccccc12	/	45*	13µM*	/	4.3
COc1ccc(Cn2c(=O)sc3ccccc3c2=O)cc1	/	-2	4%	/	/
COc1cc(N2CCOCC2)ccc1/C=C1\C(=O)NC(=O)N(Cc2cccs2)C1=O	2	3	-4%	/	-0.2
CCOc1cccc2c1OC1(C)CC2NC(=O)N1c1cccc(C(=O)NCc2ccccn2)c1 (stereo not drawn)	2	/	/	/	0.4
C=CCNC(=S)Nc1nc2c(cc1C(=O)OCC)COC(C)(C)C2	-6	/	-7%	/	0.6
COc1ccc(OC)c(S(=O)(=O)NCCc2cn3ccsc3n2)c1	1	5	-3%	-24	-4.7	Arbovirus anti repeat=2
c1cc2[nH]snc2c2nc(C3CC3)nc12	-2	-11	0%	-34	4.9
Cc1ccc2c(c1)N(CC(=O)NC1CCCCC1C)C(=O)CO2 (stereo not drawn)	-1	3	-8%	-32	-0.8
Cc1ccc(S(=O)(=O)N2CCCOC2)cc1	1	6	2%	-12	0.2
O=C(NCC1CC1)c1cc(-c2ccccc2)nn1CC1CC(c2cccc([N+](=O)[O-])c2)=NO1 (stereo not drawn)	7	/	2%	/	-0.6
COc1ccccc1N1CCN(c2ccc([N+](=O)[O-])nc2)CC1	21	10	-2%	/	1.6
O=C(CCC(=O)N1CCOc2ccccc21)N1CCCCC1	-2	/	/	/	-3.2
CC(C)Cn1c(N)c(C(=O)COC(=O)c2c(F)cccc2F)c(=O)n(C)c1=O	-1	19	-1%	/	1.3
Cc1ccc(C2/C(=C(/O)c3ccc4c(c3)CC(C)O4)C(=O)C(=O)N2CCCn2ccnc2)cc1 (stereo not drawn)	-3	/	/	/	3.0
COc1cccc(N(C(=O)CNC(=O)c2ccco2)C(C(=O)NC2CCCC2)c2cccnc2)c1 (stereo not drawn)	2	/	/	/	17
O=C(COC(=O)C1=COCCO1)Nc1ncc(C(F)(F)F)cc1Cl	82	2	51%	-26	-0.7
O=C1NC(=O)C2(CCCc3ccccc32)N1 (stereo not drawn)	-11	/	/	/	4.3
C/C(=N\NC(=O)c1nn(C)c(C)c1Br)c1cccc(NC(=O)c2ccc(F)cc2)c1	5	-23	4%	-2	-1.4

Compounds from the list above with a cyano group:
SMILES	Mtb bLac sens	Arbovirus anti	Mtb growth	YopH PTP inh	RecA splice inh	others
C=CCOC(=O)C1=C(C)NC(SCC(=O)NC(=O)OCC)=C(C#N)C1c1cccnc1 (stereo not drawn)	-12	1	-3%	-20	/
N#Cc1cnn2ccc(-c3cc(N4CCOCC4)ccc3[N+](=O)[O-])nc12	-15	6	2%	/	-4.4

Bioassay records (PubChem BioAssay)

An excerpt (hit frequency here may not be typical).
